Source: PubChem BioAssay (several laboratories)
RecA splice inh – blocks M. tuberculosis RecA intein splicing; P9WHJ3; cell-free RecA intein splicing, fluorescence; inhibition, %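 (about 9 µM by stock and volumes)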; 290,000 compounds, 0.75% hits; in the data active = inhibition above about 30%; inconclusive = no clear call, values can overlap the other calls;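 also: 0% = vehicle wells and 100% = reference inhibitor control wells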
Target sequence (P9WHJ3 whole entry, looked up, canonical isoform): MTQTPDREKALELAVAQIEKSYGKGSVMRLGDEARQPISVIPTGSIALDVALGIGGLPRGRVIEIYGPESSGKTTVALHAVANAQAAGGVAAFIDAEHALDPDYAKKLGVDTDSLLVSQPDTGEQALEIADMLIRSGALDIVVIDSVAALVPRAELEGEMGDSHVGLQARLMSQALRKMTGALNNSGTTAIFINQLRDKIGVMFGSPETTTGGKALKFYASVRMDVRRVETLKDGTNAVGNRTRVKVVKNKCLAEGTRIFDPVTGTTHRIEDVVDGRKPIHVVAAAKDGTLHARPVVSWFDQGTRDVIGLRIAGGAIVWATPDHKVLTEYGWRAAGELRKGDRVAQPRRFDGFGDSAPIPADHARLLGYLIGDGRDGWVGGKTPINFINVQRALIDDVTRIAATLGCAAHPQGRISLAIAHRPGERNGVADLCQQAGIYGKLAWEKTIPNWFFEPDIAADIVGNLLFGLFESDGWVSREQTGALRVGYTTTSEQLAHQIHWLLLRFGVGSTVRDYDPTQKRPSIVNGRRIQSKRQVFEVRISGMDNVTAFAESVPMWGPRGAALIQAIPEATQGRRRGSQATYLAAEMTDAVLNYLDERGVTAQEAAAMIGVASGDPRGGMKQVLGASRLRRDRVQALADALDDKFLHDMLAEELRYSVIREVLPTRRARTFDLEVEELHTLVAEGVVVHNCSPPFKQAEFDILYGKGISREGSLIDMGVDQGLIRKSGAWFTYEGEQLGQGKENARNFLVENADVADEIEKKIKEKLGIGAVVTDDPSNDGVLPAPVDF
Mtb bLac sens – beta-lactam sensitization of Mtb H37Rv; AID 434955; inhibition, % at 25 µM; 330,000 compounds, 0.27% hits; M. tuberculosis H37Rv growth with meropenem, percent inhibition; hits of this screen are not shown here;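 active = about 74% or more and at least 40 points above the plate without the antibiotic, then above 30% in a dose series; inconclusive = first-round hits that could not be retested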;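 also: growth measured after seven days incubation then overnight dye step; 0% = bacteria only wells and 100% = bacteria with antibiotic; twin plates without the antibiotic show which effects depend on it; some results filed as inactive read as strong as hits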
YopH inh – YopH (Yersinia) phosphatase inhibition | inhibition, %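 (about 10 µM by stock and volumes)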 | 140,000 compounds, 0.16% hits | AID 898 | fluorescence Ex485/Em525;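 active = inhibition of 50% or more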;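 also: controls were vehicle for no effect and minimum signal wells for full effect; inactives centre near -20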
Arbovirus inh – blocks arbovirus infection | AID 1251 | inhibition, % at 10 µM | 200,000 compounds, 0.37% hits | arbovirus infection cell-based antiviral screen;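 active = inhibition from about 30%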;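 also: bluetongue infection of BSR cells; cell survival read as ATP light after 72 h; 0% = infected wells without compound and 100% = uninfected wells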
Mtb H37Rv – M. tuberculosis H37Rv growth inhibitors, H37Rv strain (AID 1626); 220,000 compounds, 0.95% hits; M. tuberculosis H37Rv growth inhibition; higher % means a stronger effect; one-dose inhibition, % at 10 µM; IC50 in µM for titrated hits;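 active = confirmed in a dose series; inconclusive = inhibition above 80% but not taken into the dose series; inactive = below 80% or under 30% at every dose of the series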;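 also: bacteria incubated seven days before Alamar blue readout; 0% = bacteria only wells and 100% = bacteria with antibiotic wells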
Arbovirus inh repeat – second read-out of Arbovirus inh, no call of its own (marks repeat the call); inhibition, %; measured here: 10K subset replicate screen; many hits read low in the repeat;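 first of two repeat runs on a subset; 0% = infected and 100% = uninfected wells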
The depositor's hits bear a star; ? = inconclusive; · = not tested or not shown; & = joins results of further samples. An excerpt, so the mix of outcomes need not match the whole.

SMILES	RecA splice inh	Mtb bLac sens	YopH inh	Arbovirus inh	Mtb H37Rv	others
CC(=O)NC(CC(=O)Nc1cc(Cl)ccc1-n1cncn1)c1ccccc1 (centres undefined)	-0.1	-15.6	·	·	·
CC(C(=O)Nc1ccc2c(c1)OCCO2)N(C)Cc1c(F)cccc1Cl (centres undefined)	7.2	1.5	·	-21.4	2.1%
CCN1CCCC1CNC(=O)c1cc(N)ccc1OC (centres undefined)	-3.3	-5.5	·	·	·
O=C1NC(=S)S/C1=C\c1ccc2ccccc2c1	1.5	8.6	·	·	·
CSCC[C@H](NC(=O)NCc1ccccc1F)C(=O)O	-1.2	2.3	0.1	3.3	-7.8%
COc1ccccc1CNC(=O)C(Cc1c[nH]c2ccccc12)NC(=O)OCc1ccccc1 (centres undefined)	3.5	18.7	-35.0	-22.9	5.1%
O=C(COc1ccc(Br)cc1Cl)NC(=O)NCc1ccccc1	-0.5	6.4	-16.9	3.6	8.9%
CCCn1nc(NC(=O)C2CCCO2)c2cc3cc(C)ccc3nc21 (centres undefined)	-207.1	-0.4	8.5	-13.1	-2.0%
COc1cc(OC)c(OC)cc1/C=C1/C(=O)NC(=O)N(Cc2ccccc2)C1=O	0.2	5.6	·	·	-6.7%
CC(=O)c1c(C)[nH]c(C(=O)NC2CCSc3ccccc32)c1C (centres undefined)	3.8	2.5	·	·	·
COc1cc(NC(=O)CSc2ccc(-c3cccnc3)nn2)cc(OC)c1	-0.2	-18.4	·	·	·
COc1cccc(OC)c1C(=O)NC(=S)Nc1ccc2oc(-c3ccncc3)nc2c1	0.6	0.9	·	-3.4	-3.6%
O=C1/C(=C/c2cccs2)NC(=S)N1C1CC1	3.9	1.6	-14.7	3.1	-8.5%
Cc1c(Cl)cccc1NC(=S)NCC(c1cccnc1)N(C)C (centres undefined)	-1.4	-7.6	·	-2.1	-4.3%
Cc1cc2occ(CC(=O)OCC(=O)Nc3sc4c(c3C#N)CCC(C)C4)c2cc1C (centres undefined)	-0.2	-0.8	-31.0	-1.3	-2.1%
O=C(NCc1c(Cl)cccc1Cl)c1ccc2nnsc2c1	1.6	1.4	·	·	3.9%
Cc1ccc(NC(=O)CSc2ccc(-c3ccco3)nn2)c(C)c1	-0.9	5.8	·	7.5	-11.1%
CC(=O)c1cccc(NC(=O)NN2CCN(C)CC2)c1	1.9	-14.7	·	·	·
Cc1ccc(NS(=O)(=O)c2cccc3cccnc23)c(Cl)c1	1.3	0.5	·	·	·
COc1ccc(N(CC(=O)N/N=C(\C)c2ccccc2)S(=O)(=O)c2ccccc2)cc1	-1.3	7.4	·	·	·
C/C(=C/c1oc2ccc(O)cc2c1[N+](=O)[O-])N(C)C	-2.1	-0.5	-29.9	-2.7	-10.0%
CCOc1ccc(OCc2ccc(C(=O)N3CCc4ccccc4C3)o2)cc1	1.3	70.3	-15.2	-11.4	7.7%
CN(C)C(=O)Oc1ccc2c(c1)O/C(=C\c1ccccc1)C2=O	1.0	12.8	·	·	·
O=C1c2ccccc2C2=Nc3ccccc3SC(c3ccc(Cl)cc3)C12 (centres undefined)	13.2	77.6	-6.9	-24.6	75.9%
Fc1ccc(CSc2ncnc3nc[nH]c23)cc1	2.0	-0.1	-23.9	-36.7	7.9%

3 compounds already listed, arranged by molecular weight, rising.
SMILES	RecA splice inh	Mtb bLac sens	YopH inh	Arbovirus inh	Mtb H37Rv	others
CC(=O)c1cccc(NC(=O)NN2CCN(C)CC2)c1	1.9	-14.7	·	·	·
CCN1CCCC1CNC(=O)c1cc(N)ccc1OC (centres undefined)	-3.3	-5.5	·	·	·
CSCC[C@H](NC(=O)NCc1ccccc1F)C(=O)O	-1.2	2.3	0.1	3.3	-7.8%

The listing continues:
SMILES	RecA splice inh	Mtb bLac sens	YopH inh	Arbovirus inh	Mtb H37Rv	others
CNc1nc(SCC(=O)Nc2ccc(Cl)c(Cl)c2)nc(N2CCOCC2)n1	-0.8	-1.4	·	·	·
CC(C)c1cc(NCCCN2CCOCC2)n2c(nc3ccccc32)c1C#N	-40.3	0.6	-37.3	11.8	-3.8%
CC(C)(C)CC(=O)NCCCCCCNC(=O)CC(C)(C)C	-0.2	3.7	-14.6	0.8	-0.6%
CCOc1ccc(CCNC(=O)CN2CCN(Cc3ccccc3C)C2=O)cc1OCC	-0.8	-2.6	-14.4	2.8	10.6%
CCOCCCNC(=O)c1ccccc1SC	1.9	27.3	12.2	1.2	-4.1%
COc1cc(S(=O)(=O)N(Cc2ccc(C)cc2)C2CCCCC2)ccc1-n1cnnn1	·	9.6	-33.5	-5.9	-2.3%
CCCCN(C)S(=O)(=O)c1ccc(C(=O)Nc2nnc(-c3ccco3)o2)cc1	1.5	90.2	·	-24.6	?
CC(C)(C)NS(=O)(=O)c1cnc(Cl)c(Cl)c1	-6.6	6.2	-17.3	3.9	-3.8%
CCOC(=O)C1=C(N)Oc2cc(C)oc(=O)c2C1c1cccnc1 (centres undefined)	-0.4	-9.2	-35.6	2.9	-2.4%
O=C(CSc1nc2ccccc2c(=O)n1-c1ccccc1)N1CCCC1	-1.5	-0.8	-20.1	-3.7	-2.2%
Cc1cccc(NC(=O)CSc2ncnc3nc[nH]c23)c1	-5.1	16.9	-23.4	4.1	-4.0%
Cc1cccc(CC(=O)N2CCN=C2SCc2ccc([N+](=O)[O-])cc2)c1	3.2	4.5	-31.3	0.0	8.2%
CCCCC(NC(C)=O)c1nc2ccccc2[nH]1 (centres undefined)	8.0	5.2	-24.4	-0.2	2.1%
Cc1ccc2c(CN3CCN(Cc4ccccc4)CC3)cc(=O)oc2c1C	-1.7	4.3	·	·	·
Cc1ccc(N2C(=O)N3[C@H](c4ccc(F)cc4)[C@@H]4C(=O)N(C5CCCCC5)C(=O)[C@@H]4[C@]3(Cc3ccccc3)C2=O)cc1	2.1	3.9	·	·	·
COc1ccc2[nH]c(=O)c(CN(CCO)C(=O)c3ccccc3F)cc2c1	-0.6	2.4	-4.2	12.6	-4.6%
N#Cc1cccc(NCC(=O)Nc2ccc3c(c2)OCCO3)c1	2.3	-8.4	·	8.9	0.4%
Cc1ccc(S(=O)(=O)CCC(=O)OCc2nc(N)nc(Nc3ccccc3C)n2)cc1	-3.1	-4.7	·	·	·
Cc1cc(C(=O)COC(=O)c2ccc(N)cc2)c(C)n1-c1c(C)n(C)n(-c2ccccc2)c1=O	0.0	3.6	·	2.0	-3.0%
Cc1ccc(OCCNC(=O)c2ccccc2N)cc1	1.5	2.9	-6.0	2.5	6.9%	Arbovirus inh repeat=-1.9
COc1ccc(C(=O)CCC(=O)NCc2cc(OC)cc(OC)c2)cc1	2.4	2.8	·	·	·
CCN(CC)C(=O)c1ccc2c(=O)n(Cc3ccc4c(c3)OCO4)c(=S)[nH]c2c1	-0.2	-2.5	·	·	·
O=C(NCCCN1CCOCC1)Nc1ccc(Cc2ccc(NC(=O)NCCCN3CCOCC3)cc2)cc1	0.4	1.3	-31.6	-1.2	-1.0%
COc1ccc(NC(=O)C(CC(C)C)NC(=O)c2ccccc2C)cn1 (centres undefined)	2.7	0.9	-37.9	5.1	2.4%
Cn1c(CO)nc2c3ccccc3ccc21	2.3	8.4	·	·	·
Additional results follow:
SMILES	RecA splice inh	Mtb bLac sens	YopH inh	Arbovirus inh	Mtb H37Rv	others
Cn1c(N2CCC(C(N)=O)CC2)nc2c1c(=O)n(Cc1ccc(Cl)cc1)c(=O)n2C	-4.8	1.8	-2.5	-2.7	-16.2%
COc1ccc(/C=C2/SC(=O)N(CC(=O)Nc3cc(C)on3)C2=O)cc1OC	-4.3	2.2	-7.5	-20.4	8.3%
Cc1c(O)cccc1C(=O)N[C@@H](CSc1ccccc1)[C@H](O)CN1C[C@H]2CCCC[C@H]2C[C@H]1C(=O)NC(C)(C)C	9.1&5.3	9.0&4.2	·	·	?
COc1ccc(-n2ncc3c(=O)n(CC(=O)Nc4ccc(S(=O)(=O)N5CCOCC5)cc4)cnc32)cc1	0.4	4.8	-21.1	-0.8	4.6%
O=C(CSc1nc2ccsc2c(=O)n1Cc1ccccc1)NCC1CCCO1 (centres undefined)	·	-2.2	·	-5.5	-1.6%
CC1(C)Cc2nc(-c3ccccc3)nc(SCC(=O)N3CCCC3)c2CO1	2.7	1.8	·	·	-3.6%
C/C(=N\NC(=O)C(O)c1ccccc1)c1cccnc1 (centres undefined)	-2.7	2.8	·	·	·
N#CC1(P(=O)(c2ccccc2)c2ccccc2)CCCC1	0.5	-8.3	·	·	·
O=C(CCN1C(=O)S/C(=C\c2ccc(F)cc2)C1=O)Nc1ccc(O)cc1C(=O)O	-3.1	3.9	·	·	·
COc1ccc(N2C(=O)C(CC(=O)Nc3ccc(F)cc3)N(CCc3cccs3)C2=O)cc1 (centres undefined)	4.1	0.9	-4.8	-0.5	10.1%
CCN1CCN(C(c2cccs2)C(C)NC(=O)CC(C)C)CC1 (centres undefined)	-0.6	0.1	3.9	-7.5	-14.0%
COc1ccccc1CNS(=O)(=O)c1ccc(Br)s1	1.1	6.4	·	·	·
CC(=O)COC(=O)CCc1nc2ccccc2[nH]c1=O	-0.4	0.5	1.2	-0.6	0.4%
Cc1ccc(N2C(=S)NC3c4ccccc4OC2(C)C3C(=O)N(C)C)cc1 (centres undefined)	5.7	7.4	·	6.3	-11.1%
Cc1nn2c(C)nc3sc4c(c3c2nc1=O)CC(C)(C)OC4	-5.7	-9.1	-10.7	0.6	-6.1%
O=c1cnc(-c2ccc(Cl)cc2)cn1O	1.2	26.8	·	2.3	0.6%
N#CC1(c2ccccc2)CCN(C2CC(=O)N(c3ccc(F)cc3)C2=O)CC1 (centres undefined)	0.3	-3.4	·	3.9	-2.9%
O=C(Nc1ccc(F)cc1F)c1cc2n(n1)C(C(F)(F)F)C1CCCCC1N2 (centres undefined)	-2.6	-0.8	21.7	-12.1	6.7%
COc1ccc2c(c1)oc(=O)c1cc(OC)ccc12	-2.9	1.0	·	-5.5	6.2%
COc1ccc(-c2ccc(CCC(=O)O)n2Cc2ccco2)cc1	-1.8	-2.4	·	-10.3	-7.0%
COc1ccc(CC(=O)Nc2ccc(-c3cn4ccccc4n3)cc2)cc1OC	-0.5	-4.2	-15.3	-2.9	-2.6%
COc1ccc(-c2cn[nH]c2N)c(OC)c1	5.4	-2.3	2.7	4.2	4.3%
O=S(=O)(c1ccc(Br)cc1)N1CCN(c2ccccc2)CC1	2.6	2.1	·	·	·
CCN(C(=O)CN1CC(C)OC(C)C1)c1c(N)n(Cc2ccccc2)c(=O)[nH]c1=O (centres undefined)	-2.1	2.6	·	3.2	-10.0%
COC(=O)CCCCCc1ccc(C(C)=O)s1	0.6	-1.6	9.1	1.5	-0.6%	Arbovirus inh repeat=0.9
(list continues)
SMILES	RecA splice inh	Mtb bLac sens	YopH inh	Arbovirus inh	Mtb H37Rv	others
Cc1sc(C(=O)NCc2cccnc2)c2nc(C)n(CC(=O)NCc3cccnc3)c(=O)c12	-1.3	5.0	-22.7	0.8	-6.9%
COc1ccc(-c2c(C#N)c(N)nc3c2c(=O)n(C)c(=O)n3C)cc1	-5.7	4.6	35.2	18.4	0.1%
Cc1cc(C(=O)N/N=C/c2ccc(-c3ccccc3Cl)o2)n[nH]1	-2.2	12.2	-28.1	-19.7	-0.1%
CCN(C(=O)COC(=O)Cc1c[nH]c2ccccc12)c1c(N)n(Cc2ccccc2)c(=O)[nH]c1=O	-1.0	-9.1	·	·	·
O=c1ccc(-c2nc3ccccc3n2Cc2ccccc2Cl)c[nH]1	4.0	0.6	·	1.2	0.3%
CCc1nnc(NC(=O)CN2CCN(c3ccccc3F)CC2)s1	-4.4	11.7	·	7.5	-2.0%
CCN(CC)CCN(C(=O)c1cccc([N+](=O)[O-])c1)c1nc2ccc(OC)cc2s1	-0.7	-2.1	·	2.7	1.4%
CN(C)c1ccc(NC(=O)CSc2nnc(C3CCCCC3)n2N)cc1	-2.4	-6.4	·	·	·
CN(Cc1ccon1)C(=O)C1CCC(=O)N(Cc2ccc(Cl)cc2)C1 (centres undefined)	-3.6	-3.0	·	·	·
COC(=O)c1ccc(C(=O)OC)c(NC(=S)N2CC(C)CC(C)C2)c1 (centres undefined)	-6.2	-0.4	-35.2	-4.5	-7.3%
CCCCOc1ccc(CSC(CC(=O)O)C(=O)O)cc1 (centres undefined)	-2.8	4.3	-30.0	-0.4	-12.7%
Cc1cccc(NC(=O)N2CCC(NC(=O)c3ccco3)CC2)c1	-0.1	-10.9	·	2.1	-2.0%
Nc1ccc(N2CCN(C(=O)c3cccs3)CC2)cc1	2.8	3.8	-6.3	-29.1	-11.3%
NNC(=O)c1ccc(COc2ccc([N+](=O)[O-])cc2)o1	-1.4	-12.2	·	·	5.0%
COc1ccc(-c2nn(C)c(=O)c3ccccc23)cc1CNC(=O)NC1CCCCC1	8.6	7.6	·	-16.3	6.5%
COC(=O)c1cccc(N2C(=O)C3CC=CCC3C2=O)c1 (centres undefined)	3.8	-0.9	-38.1	-2.4	-6.6%
